# Sa helicase inh: inhibitors of S. aureus replicative helicase, primary screen, biochemical, fluorescence unwinding readout. replicative DNA helicase (DnaC/DnaB), Staphylococcus aureus. inhibition, %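 (tested at about 80 µM)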. purified S. aureus helicase, fluorescence unwinding assay; about half of the hits fall short of the stated cut. 120,000 compounds, 0.05% hits;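 active = both duplicates at 50% or more, or one of them with a favoured structure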;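 also: 0% = mean of negative control wells and 100% = mean of positive control wells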
# MgrA-DNA mod: S. aureus MgrA activity modulators, primary screen, biochemical, S. aureus Newman, fluorescence polarization; 84,000 compounds, 0.13% hits; inhibition, %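 (about 10 µg/mL by stock and volumes)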; MgrA-DNA binding; AID 602314, 2012;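 active = above 50% in either of two replicates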;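 also: 0% = protein plus DNA without compound and 100% = DNA alone without protein; higher means less MgrA bound to DNA so lower polarization; one replicate is shown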
# Active calls of the source: *; . = no result given; & = joins results of further samples. An excerpt (hit frequency here may not be typical).
SMILES,Sa helicase inh,MgrA-DNA mod
O=S(=O)(Nc1ccccc1N1CCOCC1)c1cc(Cl)sc1Cl,.,0.8
COC(=O)C1=C(Nc2ccccc2NC(=O)C(C)C)CSC1,.,-3.2
CCCCS(=O)CSc1nc(-c2cccs2)cc(-c2ccccc2)c1C#N (centres undefined),10.0,2.8
N#Cc1ccc(Cn2c(=O)c(C#N)c3n(c2=O)CCC3)cc1,12.0,.
COc1cc(OC)cc(C(=O)NCC(c2ccc(N(C)C)cc2)N2CCc3ccccc32)c1 (centres undefined),0.0,.
COC(=O)c1ccc(Cn2cnc3c(cnn3-c3ccc(F)cc3)c2=O)o1,1.0,.
N#CC(C(=O)Nc1ccc(Cl)cc1)C(=O)c1cccs1 (centres undefined),.,-1.1
COc1ccc(CNC(=O)C(OC(=O)c2cc3sccc3n2C(C)C)C(C)C)cc1 (centres undefined),10.0,-0.7
CCc1ccc(NC(=O)CS(=O)CC(=O)Nc2ccc(F)cc2F)cc1 (centres undefined),7.0,-1.2
Nc1ccc(Oc2ccc(Br)cc2)nc1,.,-0.6
Cc1cc(N2CCCC2)ccc1/C=C/C1=CCN(C)CC1,20.0,-18.1
COc1cccc2c1NC(c1cccc(Br)c1)C1CC=CC21 (centres undefined),.,-1.7
CC1CCCN(C(=S)NCc2ccccc2)C1 (centres undefined),1.0,.
O=c1c2ccccc2[nH]c(=S)n1CCc1ccccc1,.,4.5
COC(=O)COc1ccc2c3c(c(=O)oc2c1)CCC3,8.0,.
CN1C(=O)COc2ccc(C(=O)CSc3nnc(-c4ccoc4)c(-c4ccoc4)n3)cc21,10.0,39.2
CC1(C(=O)NC2CCCC2)CCC(=O)N1C1CCCCC1 (centres undefined),-27.0,.
CC1CC(C)(C)Cc2c1sc(NC(=O)c1ccco1)c2C#N (centres undefined),1.0,.
CCOC(=O)c1csc(CS(=O)(=O)Cc2ccco2)n1,.,1.5
NC(=O)CCc1cn(-c2ccccc2)nc1-c1ccccc1,6.0,-1.4
O=C(O)CNC(=S)N(Cc1ccccc1)Cc1cccs1,9.0,4.8
CC(=O)N(C(C)=O)c1ccc2c(c1)C(C)(C)C(C)N2C (centres undefined),4.0,.
Clc1cccc(-c2nc(NCCN3CCOCC3)nc3c2COc2ccccc2-3)c1,-2.0,.
CCCSc1nnc2n(N)c(=O)c3ccccc3n12,-28.0,.
N#Cc1ccccc1COC(=O)CNC(=O)c1ccccc1,-6.0,.
C=CCN1C(=O)S/C(=C/c2cc(Cl)cc(OC)c2O)C1=O,17.0,6.2
CC(C)C1NC(=O)N(c2ccccc2)C1=O (centres undefined),0.0,0.1
C=CCN(C(=O)CSc1cc(=O)n(C)c2ccccc12)c1ccccc1,15.0,-0.5
Clc1ccc(C2=NNC(=NCCCN3CCOCC3)SC2)c(Cl)c1,1.0,.
CCOc1ccc(CCNC(=O)c2cn3c4c(ccc(Cl)c4c2=O)OC(C)C3)cc1 (centres undefined),9.0,6.1
O=C(OC(Cn1cncn1)c1ccc(Cl)cc1)c1ccccc1 (centres undefined),6.0,0.2
O=C(Cc1cccs1)N1CCc2ccccc2C1,9.0,-2.9
CC(C)=CC(=O)Nc1ccccc1C(F)(F)F,-2.0,1.5
O=c1c(N2CCOCC2)nnc2sc3ccccc3n12,.,-0.5
CC1=NOC(=O)/C1=C/c1ccc(N(C)C)cc1,10.0,3.1
COc1ccc(NC(=O)C(NC(=O)C2CCCCC2)C(C)C)cc1 (centres undefined),-14.0,0.8
O=S(=O)(c1ccccc1)N1CCC(c2nc3ccccc3[nH]2)CC1,6.0,.
O=S(=O)(NCc1cccc2ccccc12)c1ccccc1,0.0,-0.2
CC(C)c1ccc(NNC(N)=S)cc1,.,1.9
O=C(OCC(=O)N1CCCC1=O)c1ccc2c(c1)OCO2,13.0,.
CCc1ccc(C2c3c(oc4ccccc4c3=O)C(=O)N2c2ccccn2)cc1 (centres undefined),11.0,-0.2
COc1ccc(CC(=O)OCC(=O)Nc2ccc(Br)cc2)cc1,-17.0,-0.3
O=C(SC1=NCCc2ccccc21)c1ccccc1,.,-0.9
c1ccc(NCc2ccc3c(c2)OCO3)cc1,12.0,.
O=C(C1CC1)N1CCN=C1SCc1c(F)cccc1Cl,9.0,.
CCOc1ccccc1C(=O)OCC(=O)Nc1cccc(Cl)c1,15.0,1.1
O=C(O)c1cc(NC(=O)c2ccc(NC(=O)c3ccco3)cc2)cc(C(=O)O)c1,-22.0,.
O=C(NC(c1ccccc1)c1ccccc1)c1ccccc1Cl,4.0,-1.1
CCN(CC)CCNC(=O)c1cc(S(C)(=O)=O)ccc1OC,.,0.1&0.6
Cc1ccc2oc(=O)c3cnn(CC(=O)N(Cc4ccco4)C4CCCC(C)C4C)c3c2c1 (centres undefined),-3.0,.
O=c1[nH]nc(-c2cc(C(F)(F)F)cc(C(F)(F)F)c2)c2ccccc12,.,4.8
CN(C)CCNc1nc2ccccc2[nH]1,2.0,.
O=C(CSC1=NCCS1)Nc1nccs1,11.0,.
COc1ccc(Nc2oc(-c3ccccc3Cl)nc2C#N)cc1,0.0,.
CCOC(=O)NCCc1c(F)cccc1Cl,.,-0.1
CC(NS(=O)(=O)c1ccc(Oc2cccc(Cl)c2C#N)cc1)C(C)(C)C (centres undefined),.,-0.6
O=C(COC(=O)C1CCCCC1)Nc1ccc(Cl)cn1,4.0,.
NNC(=O)c1cc(C(F)(F)F)cc(C(F)(F)F)c1,.,0.9
O=C(Cn1c(SCC(=O)N2CCc3ccccc32)nc2ccccc21)NC1CC1,12.0,-3.0
CC(C)N1CCC(NC(=S)NCc2ccccc2)CC1,6.0,.

# Single entries from the list:
# Nc1ccc(Oc2ccc(Br)cc2)nc1 – MgrA-DNA mod = -0.6
# CCN(CC)CCNC(=O)c1cc(S(C)(=O)=O)ccc1OC – MgrA-DNA mod = 0.1&0.6

# (continued)
SMILES,Sa helicase inh,MgrA-DNA mod
Cc1c(S(=O)(=O)C(C)C)c(N)n(Cc2ccc(F)c(Cl)c2)c1C,.,-0.4
CC1CCC/C(=N/NC(=O)c2c[nH]c3ccccc23)C1 (centres undefined),-2.0,.
CCN(CC)C(=O)c1cccc(NC(=O)Cc2coc3cc(C)ccc23)c1,6.0,.
CC1c2ccsc2CCN1S(C)(=O)=O (centres undefined),.,-1.8
Fc1ccc(COc2ccc(-c3nnco3)cc2)cc1,.,0.5
CC(C)Cn1nc(C(N)=O)c2ccccc2c1=O,-11.0,.
Cc1ccc(S(=O)(=O)N[C@@H](Cc2ccccc2)C(=O)CCl)cc1,.,-2.8
CCOc1ccc(NC(=O)NCCN2C(C)CCCC2C)cc1 (centres undefined),-2.0,-2.5
N#Cc1c(=O)c2ccccc2n2ccccc12,9.0,.
Clc1cnccn1,.,1.4
CCOc1ccc(C(=O)N(Cc2ccc(N(C)C)cc2)CC2CCCO2)cc1 (centres undefined),-12.0,.
CCN1CCN(c2cc(C)c3cc(NC(=O)COc4ccc(Cl)cc4)ccc3n2)CC1,15.0,0.6
CC(=O)NC(C(=O)NC1CC1)C(C)C (centres undefined),-10.0,.
CCC(=O)Nc1ccc(C2=NNC(=NCCN3CCOCC3)SC2)cc1,-12.0,.
CC(C)NC(=O)C1CCN(C(=O)c2ccc(Cl)cc2)CC1,6.0,-0.2
O=C(Nc1nccs1)c1cn(-c2ccccc2)nc1-c1ccccc1,6.0,.
O=c1cc(CCl)c2c(ccc3ccccc32)o1,-16.0,-1.5
CCC(=O)Nc1cccc2c(NC(=O)CC)cccc12,.,0.0
Cc1ccnc(N2CCC(C(=O)NCCC(C)C)CC2)n1,11.0,17.1
COc1cccc(OC)c1OC,2.0,2.1
O=C(NC(Nc1ncccn1)C(=O)c1ccccc1)c1ccccc1 (centres undefined),-4.0,2.9
Cc1ccc(C)c(OCCCC(C)(C)C(=O)O)c1,.,-0.6&6.4
c1c(SSc2cn3c(n2)CCC3)nc2n1CCC2,3.0,-0.1
CCCn1c(N)c(C(=O)CN(C)CC(=O)Nc2ccc(Cl)cc2)c(=O)[nH]c1=O,26.0,.
CC(CO)(CO)NS(=O)(=O)c1ccccc1,0.0,-1.1
Cc1cc(N2CCC(C(O)(c3ccccc3)c3ccccc3)CC2)nc(C)n1,7.0,13.1
CCOC(=O)c1nn(-c2ccccc2)c(=O)c(C#N)c1C,7.0,19.1
COc1cccc(C(=O)O/N=C(\N)c2ccncc2)c1OC,-24.0,.
C=CCn1c(N)c(C(=O)OCC)c2nc3ccccc3nc21,-27.0,.
O=S(=O)(Cc1ccc(Cl)cc1)Nc1nc2ccccc2s1,25.0,-0.3

# At a glance, part of the list above:
SMILES,Sa helicase inh,MgrA-DNA mod
C=CCn1c(N)c(C(=O)OCC)c2nc3ccccc3nc21,-27.0,.
O=S(=O)(Cc1ccc(Cl)cc1)Nc1nc2ccccc2s1,25.0,-0.3

# The listing continues.
SMILES,Sa helicase inh,MgrA-DNA mod
O=[N+]([O-])c1cc(C(F)(F)F)ccc1NCCNC(=S)Nc1ccccc1,.,-1.2
Cc1csc2sc(C(=O)N3CCOCC3)c(C)c12,.,-0.5
COc1cccc(C2C(C(=O)OC(C)C)=C(C)NC3=C2C(=O)CC(c2ccc(Cl)cc2)C3)c1OC (centres undefined),.,-2.3
C/C(=C\C(=O)c1cccnc1)Nc1ccccc1O,-8.0,1.9
Cc1cc(N2CCCCC2)nc2ccc(NC(=O)/C=C/c3ccco3)cc12,-13.0,.
C/C(=N\NC1=NCCN1Cc1ccccc1)c1ccccc1,.,1.0
COc1ccc(/C=C2/C(=O)N(Cc3ccccc3)N=C2C)cc1,2.0,.
CCOC(=O)c1c(NC(=O)Cn2cnc3sccc3c2=O)sc(C)c1CC,-8.0,.
CN(C)c1ccc(-c2n[nH]c(=O)c3ccccc23)cc1N,.,-2.7
CC(C)n1ncc2c(C(=O)NC3CCCCC3)cc(C3CC3)nc21,-10.0,.
COCC(C)NCc1ccc(OC)c(OC)c1 (centres undefined),16.0,-4.9
CCCOC(=O)C1=C(C)NC2=C(C(=O)CC(c3ccc(OC)cc3)C2)C1c1ccc(O)c(OCC)c1 (centres undefined),.,-0.8
CCCCNC(=O)C1Cc2cc(Cl)ccc2O/C1=N\O (centres undefined),36.0,.
Cn1ncc(NC(=O)O/N=C/c2ccccc2)c1-n1cccc1,11.0,.
CCOC(=O)C1CCCCN1S(=O)(=O)c1ccc2[nH]c3c(c2c1)CCCC3 (centres undefined),13.0,.

# Pulled by structure from above (three):
SMILES,Sa helicase inh,MgrA-DNA mod
CC(NS(=O)(=O)c1ccc(Oc2cccc(Cl)c2C#N)cc1)C(C)(C)C (centres undefined),.,-0.6
CCCCS(=O)CSc1nc(-c2cccs2)cc(-c2ccccc2)c1C#N (centres undefined),10.0,2.8
CC1=NOC(=O)/C1=C/c1ccc(N(C)C)cc1,10.0,3.1

# (cont.)
SMILES,Sa helicase inh,MgrA-DNA mod
Cc1ccc(C(=O)CC(=O)c2ccccc2O)cc1,2.0,-0.9
CCC1=C(C(=O)OC)C(c2cc(OC)c(OC)cc2OC)n2ncnc2N1 (centres undefined),6.0,1.0
CCNC(=S)NC(=NC1CCCC1)Nc1nc(C)cc(C)n1,25.0,4.6
CCCCC[C@H](O)/C=C/[C@H]1C=CC(=O)[C@@H]1CCCCCCC(=O)O,.,-1.2
O=C(COc1ncnc2ccc(Br)cc12)N1CCCCC1,-7.0,.
CCNC(=O)c1c(C)nc2ccccn12,6.0,-3.5
O=C(/C=C/C(=O)c1ccccc1)c1ccccc1,32.0,.
CN(C)c1ccc(NC(=S)N=P(c2ccncc2)(N(C)C)N(C)C)cc1,5.0,.
S=c1[nH]nc(-c2ccncc2)n1C1CCCC1,3.0,2.6
CCCCc1c(O)c2cccc3c4ccccc4n(c1=O)c23,.,-0.3
Clc1ccc(-c2nnnn2Cc2ccccc2)cc1,.,-1.7
NC(=O)c1sc(-c2ccsc2)cc1NC(=O)C(F)(F)F,.,-1.9
Cc1ccc(Sc2sc(=O)n(C)c2S(=O)(=O)c2ccc(C)cc2)cc1,10.0,4.3
CCOC(=O)c1sc(C)c2c(=O)[nH]c(-c3ccc(SC)cc3)nc12,12.0,.
O=C(CCN1CCc2ccccc2C1)Nc1ccc2c(c1)CCC2,0.0,-4.0

# Single records, from the list above. Screens in order: Sa helicase inh, MgrA-DNA mod
# `CCOC(=O)c1sc(C)c2c(=O)[nH]c(-c3ccc(SC)cc3)nc12` as listed: 12.0, .
# `CCCCc1c(O)c2cccc3c4ccccc4n(c1=O)c23` as listed: ., -0.3

# (listing goes on)
SMILES,Sa helicase inh,MgrA-DNA mod
Cn1c(=O)cc(SCC(=O)Nc2cccnc2)c2ccccc21,15.0,-1.1
COc1c(Cl)cccc1-c1cn2ccccc2n1,.,-2.1
OCc1ccc(-c2ccc(Cl)cc2)o1,2.0,.
O=C(NCC1CCCN1S(=O)(=O)c1ccccc1)Nc1ccccc1 (centres undefined),8.0,.
O=C(Nc1ccc(F)cc1)C1CC(=O)N(CCc2ccccc2)C1 (centres undefined),5.0,.
CC1=CSC2=NC(=O)/C(=C\c3ccc(SCc4ccc(Cl)cc4)o3)C(=N)N12,-24.0,.
COc1ccc(C(=O)Oc2ccc(C)cc2/C=C2\Sc3ccccc3C2=O)cc1,.,2.0
CN(C)CCCNc1ncnc2sc3c(c12)CCCC3,12.0,.
O=C(Cn1ncn2c(cc3ccccc32)c1=O)NCCc1ccccc1,6.0,.
N#Cc1ccsc1NC(=O)CSC1CCCCC1,.,-1.8
CCSc1nnc2c(n1)OC(C1CC=C(C)CC1C)Nc1ccccc1-2 (centres undefined),.,1.6
CCCn1c(SC(C(=O)c2ccccc2)c2ccccc2)n[nH]c1=O (centres undefined),-2.0,.
Cc1ccc(N2CC(C(=O)NC3CC3)CC2=O)cc1Cl (centres undefined),11.0,-2.9
CCN1CCN(c2nc(C)nc3sc4c(c23)CCC4)CC1,22.0,.
COc1cc(C=Nc2ccc(F)cc2)cc(OC)c1OC,.,2.6
CC(C)(C)c1ccc(C(=O)NCc2nnc(SCC(=O)Nc3ccc4c(c3)OCO4)o2)cc1,5.0,.
CCN(C(=O)c1cccc2c1SCCC2=O)c1ccccc1F,30.0,.
